GLA inh pH 4.5: inhibitors of human alpha-galactosidase A at pH 4.5 | 230,000 tested, under 10 active | activity change, negative = inhibition, % at 105 µM | P06280 | purified enzyme, 4-MU-alpha-Gal fluorescence, pH 4.5; inconclusive = small, poorly fitted or top-dose-only inhibition, or a rising curve; inactive = flat fitted curve, though single readings scatter; no compound was filed as active;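 further: 0% = full activity with enzyme and -100% = basal without enzyme; dose as in the result columns while the protocol names 77 µM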
miR-21 FLuc: raises the signal of a miR-21 reporter | HeLa miR-21 FLuc reporter, luciferase, 48 h | Potency, µM (highest dose often 38.3 µM), without a hit: at the highest dose reporter change, positive = more light | 340,000 tested, under 10 active; active = well fitted rising curve with a large enough effect; inconclusive = small, poorly fitted or top-dose-only effect; inactive = no such curve, though single readings can be large or run the other way;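 further: % of control where 0% means no effect; miR-21 action dims this reporter so a rising signal means less miR-21 action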
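HeLa cells stably expressing CMV-driven firefly luciferase with a downstream miR-21 binding sequence, endogenously expressing miR-21, were treated with titrations (up to about 40uM final) for 48 hours at 37 degree Celsius. Luciferase luminescence was read after lysis.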
Rango complex inh: prevents formation of the Rango-importin beta complex; AID 540263; Potency, µM (top dose mostly 92.2 µM), without a hit: at the highest dose inhibition of complex formation; Q14974; Rango CFP/YFP FRET sensor + importin beta, 45 min; 340,000 tested, 0.031% active; active = rising FRET ratio curve, often small or poorly fitted; inconclusive = mostly compound fluorescence or quenching in the first reads; inactive = flat curves in all reads;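 further: potency means the concentration at half of the fitted maximal effect; 0% = DMSO wells and 100% = buffer wells lacking importin beta; nearly all actives have a fitted effect of over 15% in size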
Target sequence (Q14974 whole entry, looked up): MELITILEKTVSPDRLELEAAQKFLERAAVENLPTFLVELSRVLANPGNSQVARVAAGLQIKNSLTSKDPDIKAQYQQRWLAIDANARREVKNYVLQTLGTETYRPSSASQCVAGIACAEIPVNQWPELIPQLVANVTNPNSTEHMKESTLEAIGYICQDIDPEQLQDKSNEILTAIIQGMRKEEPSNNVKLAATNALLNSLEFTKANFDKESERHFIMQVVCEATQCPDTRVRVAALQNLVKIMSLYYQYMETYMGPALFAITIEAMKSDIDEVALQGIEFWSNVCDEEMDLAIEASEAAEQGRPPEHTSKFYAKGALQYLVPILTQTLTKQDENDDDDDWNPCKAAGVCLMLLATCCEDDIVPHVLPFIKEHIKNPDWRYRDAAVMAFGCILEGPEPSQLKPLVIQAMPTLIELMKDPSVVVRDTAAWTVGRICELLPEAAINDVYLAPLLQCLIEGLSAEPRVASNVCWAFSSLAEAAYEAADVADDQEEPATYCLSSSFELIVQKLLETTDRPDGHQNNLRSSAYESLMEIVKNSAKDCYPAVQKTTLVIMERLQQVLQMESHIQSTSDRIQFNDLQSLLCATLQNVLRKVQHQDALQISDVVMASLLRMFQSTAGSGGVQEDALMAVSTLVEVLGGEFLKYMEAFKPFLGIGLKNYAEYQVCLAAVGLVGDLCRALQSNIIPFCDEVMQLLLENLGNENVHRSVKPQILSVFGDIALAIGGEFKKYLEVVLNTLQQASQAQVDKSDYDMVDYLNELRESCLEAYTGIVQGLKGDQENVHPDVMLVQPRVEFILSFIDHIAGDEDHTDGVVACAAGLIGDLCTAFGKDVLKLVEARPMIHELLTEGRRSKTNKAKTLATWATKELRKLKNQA
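FRET biosensor (snurportin 1 IBB flanked by EYFP and cerulean), 50 nM, with compound 5 min, then 0.125 microM importin beta in PBS, 1 mM DTT, 0.02% Tween-20, 0.1% BSA. CFP/YFP ratio read after 45 min at room temperature; pre-read flags interference.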
Rango release inh: prevents RanGTP from dissociating the Rango-importin beta complex. O95149+P62826. Biochemical FRET Rango-importin beta, RanGTP-induced dissociation. Potency, µM (top dose mostly 46.1 µM), without a hit: at the highest dose activity change, negative = inhibition. 340,000 tested, 0.071% active. AID 540253; active means falling FRET ratio curve, often poorly fitted, with flat reads before Ran was added; inconclusive means other falling curves, or compound fluorescence or quenching; inactive means flat or rising ratio curve;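 further: potency means the concentration at half of the fitted maximal effect; % of control where 0% means no effect; nearly all actives have a fitted effect of over 45% in size; -100% = wells without RanGTP and RCC1; the record marks most hits as doubtful in a second field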
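Recombinant Rango FRET biosensor (EYFP–snurportin 1 IBB–cerulean CFP10) at 0.1 uM premixed with 0.25 uM importin beta in PBS, 1 mM DTT, 0.02% Tween-20, 0.1% BSA. Compound added 5 min; RanGTP-RCC1 (0.6 uM Ran, 2 mM GTP, 0.2 uM RCC1) then triggers release, read at 45 min.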
The depositor's hits bear a star; [ ] = another dose, or the depositor's remark. Some of the compounds tested (hit frequency here may not be typical).

`O=C(COc1ccc(S(=O)(=O)N2CCOCC2)cc1)NCCCn1ccnc1` gave miR-21 FLuc -2%, Rango complex inh 5.1% and Rango release inh -12%.
CC1(C)CC(=O)C2=C(C1)NC1=C(C(=O)c3ccccc31)C2c1cc([N+](=O)[O-])ccc1O (configuration not stated) was read as GLA inh pH 4.5 -4, miR-21 FLuc 7%, Rango complex inh 3.5% and Rango release inh 31%.
O=C(c1cccc2ccccc12)C1CCCN(C(=O)c2ccc(N3CCOCC3)cc2)C1 (configuration not stated) was read as GLA inh pH 4.5 -11, miR-21 FLuc -7%, Rango complex inh 1.3% and Rango release inh -3%.
Screening CCOCc1c(C(=O)Nc2cc(OCC)c(N3CCOCC3)cc2OCC)oc2ccccc12 returned GLA inh pH 4.5 -24[21.1 µM], miR-21 FLuc inconclusive, Rango complex inh 4.1% and Rango release inh 8%.
For COc1cc(CN2CCCC(C)C2)cc([N+](=O)[O-])c1O (configuration not stated) the results were GLA inh pH 4.5 0, miR-21 FLuc -2%, Rango complex inh -6.5% and Rango release inh 30%.
`O=[N+]([O-])c1ccc(C2CCCC/C2=N\OCc2cccc(F)c2)c([N+](=O)[O-])c1` (configuration not stated) gave GLA inh pH 4.5 -7, miR-21 FLuc -6%, Rango complex inh -2.0% and Rango release inh -5%.
Screening CC(=O)Nc1ccc2nc(NC(=O)c3ccc([N+](=O)[O-])s3)sc2c1 returned GLA inh pH 4.5 -7 and miR-21 FLuc -20%.
Screening NC(=O)c1ccc(-c2noc(-c3cccc(Cl)c3)n2)cc1 returned Rango complex inh 2.7% and Rango release inh -6%.
O=C1Nc2cc(Cl)cnc2N2CCCC12 (configuration not stated) was read as GLA inh pH 4.5 10, miR-21 FLuc -6%, Rango complex inh inconclusive and Rango release inh inconclusive.
`Fc1ccc(CO/N=C/C2=C(Cl)c3ccccc3CC2)cc1` gave GLA inh pH 4.5 -3, miR-21 FLuc -13%, Rango complex inh 2.5% and Rango release inh -11%.
Cc1cc(C)n(-c2ccccc2[N+](=O)[O-])n1 was read as GLA inh pH 4.5 -1, miR-21 FLuc -3%, Rango complex inh 1.5% and Rango release inh -24%.
`CC1CCN(CC(=O)N(C)c2c(N)n(Cc3ccccc3)c(=O)[nH]c2=O)CC1` gave Rango complex inh 2.4% and Rango release inh -6%.
`CCOC(=O)c1nnn2c1nc(N1CCN(c3ccccc3)CC1)c1ccccc12` gave GLA inh pH 4.5 4, miR-21 FLuc 0%, Rango complex inh -2.9% and Rango release inh 6%.
For Cc1ccc2c(c1)c1c(n2CC(O)CNC2CCCC2)CCCC1 (configuration not stated) the results were GLA inh pH 4.5 -2, miR-21 FLuc inconclusive, Rango complex inh 1.0% and Rango release inh 26%.
`CSc1cccc(NC(=S)NCCCN2CCN(c3ccc(F)cc3)CC2)c1` gave GLA inh pH 4.5 -2, miR-21 FLuc 26%, Rango complex inh 2.1% and Rango release inh 1%.
Screening COc1ccc(N(CC(=O)NC2CCCCC2)S(=O)(=O)c2cccnc2)cc1 returned GLA inh pH 4.5 5, miR-21 FLuc -14%, Rango complex inh 2.0% and Rango release inh 0%.
Cc1ccc(NC(=O)CSCC(=O)N(C)CCOc2ccc(Cl)cc2)cc1 was read as Rango complex inh -0.3% and Rango release inh 0%.
`Cc1nc2c(C)cccc2cc1C(=O)N/N=C/c1cccnc1` gave GLA inh pH 4.5 -6, miR-21 FLuc -4%, Rango complex inh 1.3% and Rango release inh 7%.
`COC(=O)c1ccc(NC(=S)NCCc2ccccc2)cc1` gave GLA inh pH 4.5 -7, miR-21 FLuc -4%, Rango complex inh -2.6% and Rango release inh -10%.
Screening FC(F)(F)c1cc(Cl)c2nnc(-c3ccccn3)n2c1 returned miR-21 FLuc -3%, Rango complex inh 2.7% and Rango release inh 0%.
`Cn1cnc([N+](=O)[O-])c1Sc1nc2ccccc2[nH]1` gave GLA inh pH 4.5 0, miR-21 FLuc inconclusive, Rango complex inh -0.8% and Rango release inh -2%.
For CSCC[C@H](NC(=O)[C@@H]1Cc2ccccc2CN1)C(=O)NC[C@H]1CC[C@H](C(=O)O)CC1 the results were miR-21 FLuc 0%, Rango complex inh 0.0% and Rango release inh 1%.
CC1CCCN(CCC(=O)c2ccccc2)C1 (configuration not stated) was read as Rango complex inh -0.2% and Rango release inh -8%.
Screening CCN(CC)S(=O)(=O)c1cc(NC(=O)Cc2ccsc2)ccc1C returned miR-21 FLuc 13%, Rango complex inh -2.1% and Rango release inh -13%.
Screening COc1ccc(CNc2nc3ccccc3n2CCN2CCCCC2)cc1 returned GLA inh pH 4.5 0, miR-21 FLuc 8%, Rango complex inh -1.2% and Rango release inh -11%.
`Cn1nc(C(=O)NCc2ccccc2CN2CCCC2)c2ccccc2c1=O` gave Rango complex inh 0.2% and Rango release inh 0%.
Screening Cn1c(=O)c(-c2ccccc2)cc2ccccc21 returned Rango complex inh 0.0% and Rango release inh 9%.
CC(C)NC(=O)CSc1nc(N)c(-c2ccccc2)c(=O)[nH]1 was read as GLA inh pH 4.5 -2, miR-21 FLuc 1%, Rango complex inh 1.2% and Rango release inh 0%.
`CCOc1ccc(N2CC(C(=O)N3CCc4ccccc4C3)CC2=O)cc1` (configuration not stated) gave GLA inh pH 4.5 -2, miR-21 FLuc -5%, Rango complex inh -4.0% and Rango release inh 1%.
`O=C(Nc1cccc(C(F)(F)F)c1)C(Sc1n[nH]c(=O)[nH]c1=O)c1ccccc1` (configuration not stated) gave GLA inh pH 4.5 -13, miR-21 FLuc 1%, Rango complex inh -1.4% and Rango release inh -1%.
For CC(CC(=O)Nc1ccccc1C(F)(F)F)c1ccccc1 (configuration not stated) the results were GLA inh pH 4.5 0, miR-21 FLuc -6%, Rango complex inh 0.5% and Rango release inh -5%.
For CC(C)CC(=O)Nc1ccccc1Oc1ccccc1 the results were GLA inh pH 4.5 -13, miR-21 FLuc -7%, Rango complex inh -3.5% and Rango release inh -17%.
`COC(=O)CNC(=O)Cn1c(=O)n(Cc2ccc(F)cc2)c(=O)c2sccc21` gave miR-21 FLuc 6%, Rango complex inh 1.1% and Rango release inh -3%.
For Cc1ccc(NC(=O)/C(C#N)=C(\N)C(Cl)(Cl)Cl)nc1 the results were GLA inh pH 4.5 0, miR-21 FLuc -54%, Rango complex inh inconclusive and Rango release inh inconclusive.
`Cc1ccc(C2CC(c3ccco3)=NN2S(C)(=O)=O)cc1` (configuration not stated) gave GLA inh pH 4.5 -5, miR-21 FLuc -34%, Rango complex inh -2.4% and Rango release inh -14%.
Screening Cc1cc(C)n2nc(SCc3ccccc3F)nc2n1 returned miR-21 FLuc -40%, Rango complex inh -0.8% and Rango release inh -4%.
For COc1cccc(CNCCO)c1OCc1ccc(Cl)cc1 the results were GLA inh pH 4.5 -3, miR-21 FLuc 1%, Rango complex inh 4.3% and Rango release inh -8%.
CC(CCCC(C)(C)O)NC(=O)c1ccc(OC2CCN(C(=O)C3CC3)CC2)cc1 (configuration not stated) was read as GLA inh pH 4.5 0, miR-21 FLuc 3%, Rango complex inh -0.1% and Rango release inh 4%.
`CCOC(=O)C1=C(N)OC2=C(C(=O)CCC2)C1c1ccc2c(c1)OCO2` (configuration not stated) gave Rango complex inh -4.4% and Rango release inh 0%.
Screening CC(=O)Nc1ccc(N=Cc2nc(-c3ccc(C)cc3)oc2O)cc1 returned GLA inh pH 4.5 1, miR-21 FLuc -6%, Rango complex inh inconclusive and Rango release inh inconclusive.

In the list so far, 2 have a furan ring, fused or not:
Screening CCOCc1c(C(=O)Nc2cc(OCC)c(N3CCOCC3)cc2OCC)oc2ccccc12 returned GLA inh pH 4.5 -24[21.1 µM], miR-21 FLuc inconclusive, Rango complex inh 4.1% and Rango release inh 8%.
`Cc1ccc(C2CC(c3ccco3)=NN2S(C)(=O)=O)cc1` (configuration not stated) gave GLA inh pH 4.5 -5, miR-21 FLuc -34%, Rango complex inh -2.4% and Rango release inh -14%.

(next part)
For CN(C)CCCN(CCCN(C)C)C(=S)Nc1ccc(S(=O)(=O)N2CCOCC2)cc1 the results were GLA inh pH 4.5 2, miR-21 FLuc 0%, Rango complex inh -4.5% and Rango release inh 9%.
Screening Nc1[nH]c(=O)nc2snnc12 returned Rango complex inh -3.1% and Rango release inh 2%.
COc1cccc(C(=O)/C=C2\NCCc3cc(OC)c(OC)cc32)c1 was read as miR-21 FLuc -15%, Rango complex inh inconclusive and Rango release inh -18%.
Screening CCOc1ccc(NC(=S)Nc2ccc(OC)cc2)cc1 returned GLA inh pH 4.5 -13, miR-21 FLuc -10%, Rango complex inh -2.6% and Rango release inh -9%.
For Oc1c(Cl)cccc1C=Nc1cc(C(F)(F)F)ccc1N1CCCC1 the results were GLA inh pH 4.5 0, miR-21 FLuc -12%, Rango complex inh inconclusive and Rango release inh -25%.
For CCOC(=O)N1CCN(S(=O)(=O)/C=C/c2ccccc2)CC1 the results were GLA inh pH 4.5 -4, miR-21 FLuc -3%, Rango complex inh -2.4% and Rango release inh 12%.
`Cc1nc2ccc(S(=O)(=O)NC(C(=O)NCc3cccs3)C(C)C)cc2s1` (configuration not stated) gave GLA inh pH 4.5 1, miR-21 FLuc -10%, Rango complex inh -0.3% and Rango release inh -10%.
`COc1ccccc1OCCCCN1CCN(C(c2ccccc2)c2ccccc2)CC1` gave GLA inh pH 4.5 7, miR-21 FLuc 17%, Rango complex inh inconclusive and Rango release inh -11%.
`S=C(Nc1ccccc1Cl)N1CCCC1` gave GLA inh pH 4.5 6, miR-21 FLuc -7%, Rango complex inh 3.9% and Rango release inh -14%.
O=C(NCc1ccncc1)c1nnc(Cc2c(F)cccc2Cl)o1 was read as GLA inh pH 4.5 6, miR-21 FLuc -6%, Rango complex inh -3.4% and Rango release inh 0%.

The list goes on (2 carried over from the part before).
`S=C(Nc1ccccc1Cl)N1CCCC1` gave GLA inh pH 4.5 6, miR-21 FLuc -7%, Rango complex inh 3.9% and Rango release inh -14%.
O=C(NCc1ccncc1)c1nnc(Cc2c(F)cccc2Cl)o1 was read as GLA inh pH 4.5 6, miR-21 FLuc -6%, Rango complex inh -3.4% and Rango release inh 0%.
O=C(CCSCCc1ccncc1)NCCCN1CCOCC1 was read as GLA inh pH 4.5 1, miR-21 FLuc -3%, Rango complex inh 0.9% and Rango release inh 5%.
Screening CC(=O)Nc1ccc2c(c1)nc(CCN1CCOCC1)n2C returned GLA inh pH 4.5 -1, miR-21 FLuc -3%, Rango complex inh -0.3% and Rango release inh 7%.
`Cc1cn2c(=O)c(C(=O)NCc3ccc4c(c3)OCO4)cnc2s1` gave Rango complex inh 0.4% and Rango release inh -6%.
For CCSc1nnc(NC(=O)CSC2=NN3CCCC(=O)N=C3S2)s1 the results were GLA inh pH 4.5 1, miR-21 FLuc -3%, Rango complex inh -1.3% and Rango release inh 0%.
Screening Cc1ccc(S(=O)(=O)N2CCN(c3ccccc3)CC2)s1 returned Rango complex inh -3.4% and Rango release inh -13%.
Screening Cc1ccc(C(=O)NCC(=O)NC2CC2)cc1 returned Rango complex inh 2.2% and Rango release inh 5%.
For Cc1nn(-c2ccccc2)c(C)c1C(=O)OCC(=O)Nc1ccccc1C(F)(F)F the results were Rango complex inh 0.6% and Rango release inh 7%.
Screening CN(CC(=O)Nc1ccccc1C(=O)NC1CC1)Cc1ccccc1F returned Rango complex inh -1.7% and Rango release inh -5%.
For CC1(C)CC(=O)c2ccc(OCc3ccc([N+](=O)[O-])cc3)cc2O1 the results were GLA inh pH 4.5 -10, miR-21 FLuc -58%, Rango complex inh -1.6% and Rango release inh 1%.
`O=[N+]([O-])c1cc2no[n+]([O-])c2cc1N1CCCCC1` gave Rango complex inh 8.1% and Rango release inh -18%.
CCc1nc2scc(-c3cccs3)c2c(=O)o1 was read as GLA inh pH 4.5 -8, miR-21 FLuc -6%, Rango complex inh 6.9% and Rango release inh 0%.
Screening CCCC1CCC(c2ccc(OCC)cc2)=CC1=O (configuration not stated) returned miR-21 FLuc -44%, Rango complex inh 0.0% and Rango release inh -11%.
Screening Cc1cc(C)nc(N(C#N)Cc2ccc(Cl)cc2)n1 returned GLA inh pH 4.5 2, miR-21 FLuc -14%, Rango complex inh 3.2% and Rango release inh -1%.
